# Assay outcomes (PubChem)
# V. cholerae motility = Vibrio cholerae motility inhibitors, OD read-out (AID 588778) | Vibrio cholerae motility, OD read-out; higher % means a stronger effect; test concentration not given here; primary cut-off and reference of the scale not given here; strong numbers were not always called active | inhibition, %, or IC50 in µg/mL where a hit was titrated | 10,000 tested, under 10 active; in the data active = confirmed in a dose series
# V. cholerae motility viability = further read-out of V. cholerae motility, marked with its call; inhibition, %; measured here: bacterial viability at 10 ug/mL;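 higher means fewer living bacteria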
# The depositor's hits bear a star; i = inactive. Not all compounds are listed. The share of hits here may be higher or lower than overall.
nr	canonical_smiles	V. cholerae motility	V. cholerae motility viability
1	Cc1ccc(Nc2nnc(-c3ccncc3)s2)c(Br)c1	45%	9
2	CCOc1ccc2nc3cc(N)ccc3c(N)c2c1	41%	9
3	COC(=O)c1ccc(NC(=O)CSc2nnc(C)c3ccccc23)cc1	3%	19
4	O=[N+]([O-])c1ccccc1OCC(O)CN1CCN(c2cccc(Cl)c2)CC1 (centres undefined)	2%	-1
5	COc1ccc2c(c1)C1OCCC1C(c1ccco1)N2 (centres undefined)	-10%	4
6	c1ccc(CN2CCC3(CC2)Nc2ccccc2CO3)cc1	56%	9
7	COc1ccc(-c2csc(NC(=O)CSc3nc(-c4ccccc4)cc(=O)[nH]3)n2)cc1	-3%	-6
8	CCn1nccc1C(=O)Nc1nc2ccccc2n1CCN1CCCCC1	14%	0
9	CSCCC(NC(=O)c1ccccc1)C(=O)NCc1ccc(C(C)(C)C)cc1 (centres undefined)	10%	4
10	O=C(/C=C/c1cc([N+](=O)[O-])ccc1O)c1ccc(Cl)cc1	119%	15
11	CC1(C(=O)Nc2nc3c(s2)CCCC3)Cc2ccccc2C(=O)O1 (centres undefined)	-15%	-5
12	CC(=O)Nc1nc2nc(C)c(Cc3ccccc3)c(=O)n2[nH]1	11%	1
13	NC(=O)NNc1c2ccccc2nc2ccccc12	i	27
14	N#Cc1ccc(C(=O)Nc2ccc(Cl)cn2)c(F)c1	17%	-2
15	COc1ccc(C(=O)NCCCn2ccnc2)cc1[N+](=O)[O-]	3%	2
16	O=C(COc1ccc2ccc(=O)oc2c1)NC1CCCC1	12%	0
17	O=C(CCS(=O)(=O)Cc1ccccc1)N1CCN(C(=O)c2ccco2)CC1	6%	-1
18	NC(=O)c1ccccc1NC(=O)c1cccc(C(=O)Nc2ccccc2C(N)=O)n1	7%	1
19	Cn1nnc2cc(NC(=O)N3CCN(c4ccccn4)CC3)ccc21	-1%	-2
20	COc1ccccc1NC(=O)CCSc1nnc(-c2ccco2)o1	8%	20
21	O=C(Nc1ccc(S(=O)(=O)N2CCCc3ccccc32)cc1)c1sc2ccccc2c1Cl	-1%	-3
22	O=C(CCC(=O)Nc1ccccc1Cl)NNC(=O)Nc1ccc(F)cc1F	-14%	-8
23	O=c1c2cc(-c3ccccc3)sc2ncn1Cc1ccc([N+](=O)[O-])cc1	3%	-6
24	Cn1nnc2cc(C(=O)NCc3ccc4c(c3)OCO4)ccc21	5%	-1
25	Nc1nc2ccccc2n1Cc1ccc(Br)cc1	127%	40

# 3 compounds drawn at random from the list so far, as already listed:
nr	canonical_smiles	V. cholerae motility	V. cholerae motility viability
16	O=C(COc1ccc2ccc(=O)oc2c1)NC1CCCC1	12%	0
11	CC1(C(=O)Nc2nc3c(s2)CCCC3)Cc2ccccc2C(=O)O1 (centres undefined)	-15%	-5
21	O=C(Nc1ccc(S(=O)(=O)N2CCCc3ccccc32)cc1)c1sc2ccccc2c1Cl	-1%	-3

# New compounds follow
nr	canonical_smiles	V. cholerae motility	V. cholerae motility viability
26	Cc1ccc(S(=O)(=O)N2CCN(c3nc(NC(C)c4ccccc4)c4ccccc4n3)CC2)cc1 (centres undefined)	4%	-1
27	COc1ccc(Cl)cc1NC(=O)NC(C)C1CCCO1 (centres undefined)	1%	-2
28	CC(=O)N(C)c1ccc(NC(=S)Nc2ccc(C)c(Cl)c2)cc1	9%	2
29	O=C(NCCC1=CCCCC1)c1nc2ccccc2s1	1%	5
30	CC1CCN(C(=O)c2ccc(S(=O)(=O)N(C)C)cc2)C(C)C1 (centres undefined)	14%	9
31	S=C(Nc1cccc(Cl)c1Cl)Nn1cnnc1	9%	24
32	CC(CS(=O)(=O)c1ccc([N+](=O)[O-])cc1)N1CCCCC1 (centres undefined)	8%	0
33	O=C(NCc1ccccn1)c1cnn2c(C(F)(F)F)cc(-c3cccs3)nc12	16%	6
34	Fc1ccccc1OCCCCOc1ccccc1F	-9%	-5
35	COc1ccc(N2C(=O)NC(=O)/C(=C\c3sccc3C)C2=O)cc1	2%	0
36	O=S(=O)(NCc1ccncc1)c1ccc(I)cc1	19%	0
37	O=C(COc1cc(Cl)c(Cl)cc1Cl)Nc1cccnc1	-8%	-3
38	O=C(c1ccc(N2CCNCC2)cc1)c1cccnc1	4%	-3
39	NS(=O)(=O)c1ccc(CNC(=S)NCc2ccc(Cl)cc2)cc1	1%	-3
40	CC(C)C(=O)N1CCN(c2ccc(NC(=O)c3cncc(Br)c3)cc2)CC1	4%	-2
41	COc1ccc2c(Cl)c(C(=O)NC3CCS(=O)(=O)C3)sc2c1 (centres undefined)	19%	-1
42	O=C(Cc1ccccc1)Nn1c(O)c(C2=c3ccccc3=NC2=O)sc1=S	-7%	2
43	N#C/C(=C\C=C\c1ccco1)c1nc2c(s1)CCCC2	5%	4
44	O=C(Nc1cccc(C(=O)n2nnc3ccccc32)c1)c1ccccc1	-10%	0
45	Cc1nn(-c2ccccc2)c(C)c1CC(=O)NCCc1ccccc1	-7%	-7
46	Cc1cc(=O)[nH]c(Nc2ccc(C(=O)OC(C)C)cc2)n1	21%	5
47	CCCCc1nc(SCC(=O)Nc2nc3ccccc3s2)n[nH]1	13%	10
48	O=C(Nc1ccccc1Br)NS(=O)(=O)c1ccccc1Cl	-29%	-13
49	COC(=O)c1ccc(C(=O)OCC(=O)c2ccccc2)cc1-c1ccccc1	2%	31
50	COc1cc(C)c(NC(=O)c2ccccc2I)cc1C(C)C	-4%	-4

# 4 entries from above, as labelled records:
42) O=C(Cc1ccccc1)Nn1c(O)c(C2=c3ccccc3=NC2=O)sc1=S
  V. cholerae motility: -7%
  V. cholerae motility viability: 2

35) COc1ccc(N2C(=O)NC(=O)/C(=C\c3sccc3C)C2=O)cc1
  V. cholerae motility: 2%
  V. cholerae motility viability: 0

41) COc1ccc2c(Cl)c(C(=O)NC3CCS(=O)(=O)C3)sc2c1 (centres undefined)
  V. cholerae motility: 19%
  V. cholerae motility viability: -1

45) Cc1nn(-c2ccccc2)c(C)c1CC(=O)NCCc1ccccc1
  V. cholerae motility: -7%
  V. cholerae motility viability: -7

# Complete entries from above. Order of values: V. cholerae motility	V. cholerae motility viability
# S=C(Nc1cccc(Cl)c1Cl)Nn1cnnc1 across the screens: 9%	24
# COc1cc(C)c(NC(=O)c2ccccc2I)cc1C(C)C across the screens: -4%	-4
# Cc1nn(-c2ccccc2)c(C)c1CC(=O)NCCc1ccccc1 across the screens: -7%	-7
# O=C(NCCC1=CCCCC1)c1nc2ccccc2s1 across the screens: 1%	5
# CC(CS(=O)(=O)c1ccc([N+](=O)[O-])cc1)N1CCCCC1 (centres undefined) across the screens: 8%	0

# (listing goes on)
nr	canonical_smiles	V. cholerae motility	V. cholerae motility viability
51	CC(=O)c1ccc2[nH]c3ccc(C(C)=O)cc3c2c1	109%	24
52	Cc1c(C(=O)NC(=S)Nc2cc(-c3nc4ccccc4s3)ccc2Cl)oc2ccccc12	-8%	19
53	CN1C(=O)C(Cc2c[nH]c3ccccc23)C(=O)N(C)C1=O	1%	-2
54	CC(=O)Cc1nsc(NC(=O)c2ccc(CSc3ccccc3)o2)n1	11%	-1
55	N/C(=N\OC(=O)CCCOc1ccc(Cl)cc1Cl)c1cccc([N+](=O)[O-])c1	5%	-4
56	NC(=O)c1c(NC(=O)c2c(F)c(F)c(F)c(F)c2F)sc2c1CCC2	14%	0
57	O=c1[nH]c(=S)[nH]c2sc3c(c12)-c1ccccc1CC3	-3%	-6
58	O=c1oc2ccccc2cc1-c1ccc(F)cc1	-19%	-10
59	Cc1cccc(-c2nnc(SCC(=O)c3cccs3)o2)c1	-25%	-13
60	O=[N+]([O-])c1cccc(-c2noc(-c3ccccc3Br)n2)c1	25%	26
61	C=CCC(c1ccncc1)/[N+]([O-])=C\c1ccccc1 (centres undefined)	8%	3
62	CN1CCc2c(c(S)[nH]c(=S)c2C#N)C1	8%	5
63	CCOC(=O)c1sc(/N=C\N(C)C)nc1C	-6%	2
64	O=C(Cn1nnc2ccccc2c1=O)c1ccccc1Cl	12%	0
65	Cn1c(=O)c2cn3c4ccccc4nc(C(F)(F)F)c3c2n(C)c1=O	-7%	-4
66	COc1ccc(-c2csc(NC(=S)NC(=O)c3ccc(OC)c([N+](=O)[O-])c3)n2)cc1OC	3%	21
67	Brc1ccc(SCCc2ccccn2)cc1	22%	6
68	CN(C)c1ccc(C(=S)NC2CCCCC2)cc1	-6%	-2
69	Cc1nc(NC(=O)c2c(F)c(F)c(F)c(F)c2F)ccc1I	13%	1
70	CCOC(=O)C1CCN(C(=O)c2ccc(C)c(S(=O)(=O)Nc3cccc(C)c3)c2)CC1	7%	-1
71	CCC1=NN(C(=O)c2ccc(C)o2)C(O)(C(F)(F)F)C1 (centres undefined)	17%	3
72	O=C(CCc1ccccc1)NCc1ccc(F)cc1	11%	0
73	C=COC(=O)CSc1nc(-c2ccccc2)cc(-c2ccc(OC)cc2)c1C#N	-5%	-5
74	O=C(Nc1ccc(F)cc1F)NN1CCOCC1	6%	2
75	CC(C)(C)c1cc(NC(=O)c2ccc(S(=O)(=O)c3ccccc3)cc2)no1	7%	-8
76	O=C(C1CCC1)N1CCN(c2ccccn2)CC1	23%	2
77	CCOC(=O)c1c(-c2ccc(OC)cc2)oc2ccc(OS(C)(=O)=O)cc12	-3%	-4
78	CC(=O)Oc1ccc(C(=O)Nc2ccccc2C(=O)Nc2nccs2)cc1	-13%	-7
79	O=C(OCC(=O)c1ccccc1Br)c1ccc2ccccc2n1	20%	1
80	O=c1oc2c(CN3CCN(CCO)CC3)c(O)ccc2cc1-c1nc(-c2ccc(Br)cc2)cs1	-6%	-1
81	CCOc1cc2c(cc1OCC)C(c1ccccc1OC)OC(=O)C2 (centres undefined)	-4%	-3
82	CC(CCC(=O)NC1CCCCC1)C(=O)O (centres undefined)	12%	2
83	Cc1cc(OCC(=O)Nc2cccnc2)ccc1[N+](=O)[O-]	5%	-9
84	Cc1cc(C)c(S(=O)(=O)N(CC(=O)O)Cc2ccc(Cl)cc2)c(C)c1	-4%	-4
85	COC(=O)c1ccsc1NC(=O)CN1CCN(Cc2ccc3c(c2)OCO3)CC1	3%	6
86	N#C/C(=C\c1ccc(OCC(=O)O)cc1)C(N)=S	9%	1
87	CCOC(=O)Nc1cc2c(cc1C(C)=O)OCO2	10%	27
88	Cc1c(F)cccc1NC(=O)C1CCCCC1C(=O)O (centres undefined)	2%	-2
89	CCOc1cc(/C=C\[N+](=O)[O-])ccc1OCC(=O)N1CCOCC1	-27%	-5
90	O=C(O)CCc1ccc(-c2ccc(Cl)cc2)[nH]1	44%	9
91	CCOC(=O)CN1C(=O)C(O)(CC(=O)c2ccc(Cl)s2)c2ccccc21 (centres undefined)	0%	3
92	CCOC(=O)N1CCN(C(=O)c2cc(-n3cnnc3)ccc2Cl)CC1	3%	7
93	Cc1cc(C)n(CC(=O)NCc2cc(-c3nn(C)c(=O)c4ccccc34)ccc2C)n1	-19%	-14
94	Cc1cccc(OCCOCCN2CCCc3ccccc32)c1	8%	3
95	CCOc1ccccc1OCC(=O)Nc1ccc(S(=O)(=O)Nc2ccccn2)cc1	-7%	-6
96	C#CCOc1c(Br)cc(/C=C(/C#N)c2nc3ccc(OC)cc3[nH]2)cc1OC	-14%	-8
97	COc1ccc(Cl)cc1C(=O)Nc1ccc(NS(=O)(=O)c2ccc(C)cc2)cc1	4%	-3
98	Cc1cc(C)nc(Nc2n[nH]c(COc3cccc4cccnc34)n2)n1	-19%	-7
99	O=C(Nc1ccccc1-c1nc2ccccc2[nH]1)NC1CCCCC1	45%	6
100	CNc1nc(N2CCc3ccccc32)ncc1F	13%	2
101	O=C(CSc1nccc(=O)[nH]1)Nc1nccs1	3%	-4
102	Cc1ccc(Nc2nc3nonc3nc2NNc2ccccc2)cc1Cl	31%	13
103	CCC1(C)Cc2ccccc2-c2[nH]c(=S)n(-c3ccccc3OC)c(=O)c21 (centres undefined)	-6%	-2
